Bioassay records: PubChem BioAssay, National Center for Advancing Translational Sciences (NCATS)
VDR inh: inhibitors of human vitamin D receptor. AID 504847. Potency, µM, for the others: max response, negative = inhibition, usual class: inhibitors. 400,000 tested, 0.93% active. VDR-SRC2-3 peptide fluorescence polarization, 2 h; active means well fitted inhibition curve with a large enough effect; inconclusive means small, poorly fitted or top-dose-only effect, or another doubt; inactive means no such curve, though single readings can be large or run the other way; further: series mostly up to about 120 µM
Target sequence (P11473 whole entry, looked up): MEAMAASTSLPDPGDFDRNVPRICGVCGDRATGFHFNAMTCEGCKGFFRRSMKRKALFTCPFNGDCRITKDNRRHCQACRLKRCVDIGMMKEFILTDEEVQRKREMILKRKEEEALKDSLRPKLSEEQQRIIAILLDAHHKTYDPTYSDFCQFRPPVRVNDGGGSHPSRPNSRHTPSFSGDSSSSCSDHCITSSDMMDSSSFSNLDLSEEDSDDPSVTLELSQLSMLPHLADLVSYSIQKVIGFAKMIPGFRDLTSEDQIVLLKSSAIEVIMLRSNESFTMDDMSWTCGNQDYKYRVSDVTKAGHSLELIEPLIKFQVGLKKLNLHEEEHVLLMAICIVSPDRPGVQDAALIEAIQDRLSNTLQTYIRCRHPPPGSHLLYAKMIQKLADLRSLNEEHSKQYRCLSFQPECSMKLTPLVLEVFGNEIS
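Measured by FP: displacement of SRC2-3 coactivator peptide from VDR by library compounds, following a two-hour ambient incubation.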
Active calls of the source: *; ? = inconclusive; & = joins results of further samples; [ ] = dose if it differs, or a comment. On the % scale 0 is the no-effect control and ±100 the full control effect; potency means the concentration at half of the fitted maximal effect.

VDR inh,mol
2%,CS(=O)(=O)N1CCN(c2ccc(NC(=O)c3ccccc3)cc2)CC1
12%,CC(NC(=O)C(c1ccccc1)c1ccccc1)c1ccc(S(N)(=O)=O)cc1 (stereo not given)
9%,Cc1ccc(CNC(=O)Cn2c([N+](=O)[O-])cnc2C)cc1
-15%,O=C(OCc1ccccc1)c1ccccc1O
-12%,Cc1cc(NC(=O)C(=O)c2cn(C)c3ccccc23)no1
7%,O=C(Nc1cccc2ncccc12)C12CC3CC(CC(C3)C1)C2
8%,Cc1nc2cc(NC(=O)c3ccco3)ccc2n1C
-7%,CC(=O)Nc1ccccc1N(CC(O)Cn1c2ccccc2c2ccccc21)S(=O)(=O)c1ccc(C)cc1 (stereo not given)
10%,CCOc1nc(-c2ccccc2)ccc1-c1noc(-c2cccs2)n1
-2%,O=S(=O)(c1ccc2c(c1)OCCO2)N1CCC(c2nc3ccccc3[nH]2)CC1
-23%,CCNC(=O)C12CCC(C)(c3nc4cc(C)c(C)cc4nc31)C2(C)C (stereo not given)
10%,CC(Cc1ccccc1)=NNc1ccc([N+](=O)[O-])cc1[N+](=O)[O-]
-16%,O=C(CSC1CC(=O)N(c2ccc(C(=O)O)cc2)C1=O)Nc1ccc2ccccc2c1 (stereo not given)
14%,COc1cc(-c2nnc(SCC(=O)/C(C#N)=C(\C)N)o2)cc(OC)c1OC
14%,CC(=O)c1cc(NC(=O)c2cccc(C(F)(F)F)c2)c(=O)oc1/C=C/N(C)C
5%,Cc1ccccc1OCC(=O)NNC(=S)NC(=O)c1ccco1
1%,COc1ccc(C2CC(=O)Nc3sc(=N)c4c(N)c(C#N)c(N)nc4c32)cc1OC (stereo not given)
4%,O=C(OCc1nnc(-c2ccccc2)o1)c1ccccc1
0%,COc1ccc(C2CC(C(F)(F)F)n3nc(C(=O)N(C)Cc4cn(C)nc4C)c(Cl)c3N2)cc1 (stereo not given)
17%,COc1ccc(Oc2cc(Cl)nc(N)n2)cc1
-19%,Cc1cc(OCC(=O)N2CCc3ccccc3C2)c(C)cc1Br
13%,Cn1cccc1C(=O)NC(=O)COC(=O)c1ccc(S(C)(=O)=O)cc1
15%,COc1cc2c(c(NC(C)=O)c1)N(C(C)=O)CCC2
-5%,CC(OC(=O)Cc1n[nH]c(=O)c2ccccc12)C(=O)Nc1ccc(F)cc1Cl (stereo not given)
1%,Cc1cnc(C(=O)NC2CCSc3ccccc32)cn1 (stereo not given)
1%&5%,Cc1ccc(S(=O)(=O)N2CCC(=O)N(CCOCc3ccc(C(F)(F)F)cc3)CC2)cc1
30%,Cc1cc(C)cc(NC(=O)NCc2c(-n3cccc3)sc3c2CCCC3)c1
?,COc1cccc(CNC(=O)C2CCN(Cc3cnn(-c4ccccc4)c3-n3cccc3)CC2)c1
-1%,CCN1c2ccc(S(=O)(=O)N3CCOCC3)cc2N(Cc2ccc(OC)cc2)C1C (stereo not given)
7%,N#Cc1nc(/C=C/c2ccc(F)cc2)oc1NC1CCCCC1
-8%,COCCN(C(=O)COC(=O)Cc1ccc(Cl)cc1Cl)c1c(N)n(Cc2ccccc2)c(=O)[nH]c1=O
-9%,Cc1ccc(NC(=O)COC(=O)/C=C/c2ccc(Br)o2)cc1S(=O)(=O)N(C)C
-2%,CCOc1ccc(OCCn2c(S(=O)(=O)O)nc3c(N)ncnc32)cc1
-16%,COc1ccc(-c2nnc(SCc3ccc(C(=O)O)cc3)n2N)cc1
6%,CCOc1ccc(CNC(=O)Cc2ccc(NC(=O)N3CCCCc4ccccc43)cc2)cc1OC
-25%,COC(=O)C1=C(C)NC(=O)NC1c1ccc([N+](=O)[O-])o1 (stereo not given)
0%,Cc1ccc2sc(NC(=O)c3ccc4c(c3)OCCO4)nc2c1C
1%,O=C(CCN=C1NS(=O)(=O)c2ccccc21)OCc1nnc(-c2ccccc2)o1
17%,CCCCN(CCCC)S(=O)(=O)c1ccc(C(=O)Nc2nnc(COC)o2)cc1
15%,O=C(CN1C=NS(=O)(=O)c2ccccc21)Nc1ccc(F)cc1
8%,NC(=O)c1c(NC(=O)COC(=O)CSc2nnc(-c3ccc(Cl)cc3)o2)sc2c1CCC2
-20%,CC(=O)c1cccc(NC(=O)c2ccc(NC(=O)CC3SC(N4CCCCC4)=NC3=O)cc2)c1 (stereo not given)
-12%,COc1ccc(C2CC(=O)c3cc(-c4nc(-c5cccc([N+](=O)[O-])c5)cs4)c(=O)n(-c4ccc(OC)cc4)c3C2)cc1 (stereo not given)
8%,CCCN(CCC)C(=O)CSc1nc2n[nH]c(C)c2c(=N)n1-c1ccc(OCC)cc1
-21%,O=C1CCCN1CCCNc1ccc2nnc(CCC(=O)N3CCN(c4ccc(F)cc4)CC3)n2n1
-6%,CCOc1ccccc1C(=O)NCC(=O)Nc1ccc(-c2ccccc2)cc1
1%,Cn1c(SCc2ccc(Br)cc2)nc2ccccc2c1=O
22%,O=C(Nc1ccc(Oc2ccccc2)nc1)C1CCN(Cc2ccco2)CC1
6%,Cn1ncc(=S)[nH]c1=S
-5%,CCOc1cccc(C(=O)Nc2ccc(N3CCN(S(C)(=O)=O)CC3)cc2)c1

(more compounds)
VDR inh,mol
-4%,Cc1cccc(C(=O)Nc2nnc(S(=O)(=O)N3c4ccccc4CC3C)s2)c1 (stereo not given)
-7%,CCC(C)c1ccccc1NC(=O)COC(=O)CCc1cc(OC)c(OC)c(OC)c1 (stereo not given)
-2%,O=C(c1ccc2c(Cl)c3c(nc2c1)CCCC3)N1CCN(c2ccccc2F)CC1
-18%,Cc1ccc(CSCCNC(=O)c2ccc(Cl)c(S(=O)(=O)N3CCOCC3)c2)cc1
0%,O=C(C1CCC1)N1CCN(c2ccc(Cl)cc2)CC1
4%,COC(=O)CSc1nc(C)c(C)c(C)c1C(N)=O
-8%,CSCCC(NC(=O)c1ccc(C(C)(C)C)cc1)C(=O)O (stereo not given)
-6%,CCc1nc2nc(C)c(NS(=O)(=O)c3ccc4c(c3)CCCC4)c(=O)n2[nH]1
-10%,CN(C)c1ccc(C(=O)c2ccc(O)cc2O)cc1
-12%,CCCCNc1cccc2c1S(=O)(=O)N(CCCC)CC(COCc1ccccc1)O2 (stereo not given)

Among those listed so far, these contain fluorine:
VDR inh,mol
14%,CC(=O)c1cc(NC(=O)c2cccc(C(F)(F)F)c2)c(=O)oc1/C=C/N(C)C
0%,COc1ccc(C2CC(C(F)(F)F)n3nc(C(=O)N(C)Cc4cn(C)nc4C)c(Cl)c3N2)cc1 (stereo not given)
-5%,CC(OC(=O)Cc1n[nH]c(=O)c2ccccc12)C(=O)Nc1ccc(F)cc1Cl (stereo not given)
1%&5%,Cc1ccc(S(=O)(=O)N2CCC(=O)N(CCOCc3ccc(C(F)(F)F)cc3)CC2)cc1
7%,N#Cc1nc(/C=C/c2ccc(F)cc2)oc1NC1CCCCC1
15%,O=C(CN1C=NS(=O)(=O)c2ccccc21)Nc1ccc(F)cc1
-21%,O=C1CCCN1CCCNc1ccc2nnc(CCC(=O)N3CCN(c4ccc(F)cc4)CC3)n2n1
-2%,O=C(c1ccc2c(Cl)c3c(nc2c1)CCCC3)N1CCN(c2ccccc2F)CC1

(list continues)
VDR inh,mol
0%,CC[n+]1c(/C=C/N(C)c2ccccc2)oc2ccccc21
-5%,N#C/C(=C/c1ccc(Sc2nc3ccccc3[nH]2)o1)c1ccccc1F
-15%,Cc1cccc(C)c1Nc1ncnc2ccccc12
?,C=C(C)Cn1c(SCC(=O)O)nnc1-c1ccc(OC)cc1
8%,CCN(C1CCCCC1)S(=O)(=O)c1cc(C)ccc1OC
0%,C/C(N)=C(/C#N)C(=O)COC(=O)c1ccccc1C(=O)c1ccc(C)cc1
11%,COc1ccc(C2C3C=CCC(c4cccc(-c5ccc(N(C)C)cc5)c4)C3C(=O)N2Cc2ccccc2)cc1Cl (stereo not given)
-15%,O=C(c1ccc2c(c1)C(=O)N(Cc1ccco1)C2O)N1CCOCC1 (stereo not given)
4%,COc1cccc(CNC(=O)CCCC(=O)Nc2cccc([N+](=O)[O-])c2)c1
-12%,CC(C)Oc1cccc(C(=O)NC(=S)Nc2ccccc2)c1
-14%,COc1ccc2c(C(F)(F)F)cc(=O)oc2c1C
0%,COC(=O)CSc1nc(C2CC2)nc2ccccc12
-14%,Cc1nc2sc(C(c3cccs3)N3CCN(C(=O)c4ccco4)CC3)c(O)n2n1 (stereo not given)
-6%,N#CC1=C(N)Oc2cc3ccccc3cc2C1c1cccnc1 (stereo not given)
7%,CC1=C(C(=O)OCCNC(=O)c2cccnc2)C(c2cccc([N+](=O)[O-])c2)C(C(=O)OCCN(C)C)=C(C)N1 (stereo not given)
-1%,COc1ccc(C2(CNC(=O)c3cccc([N+](=O)[O-])c3)CCCCC2)cc1OC
-17%,COc1ccc(Cl)cc1NC(=O)CSc1nc(-c2cccs2)cc(C(F)(F)F)n1
-8%,COc1cccc2c1cc1c(=O)n(CC(=O)N3CCN(c4cccc(C(F)(F)F)c4)CC3)nc(C)n12
7%,CCc1ccc(CNC(=O)CN2CCSc3ccccc32)cc1
-6%,CCN(CC)C(=O)Cn1cc(C(=O)C(=O)NCCc2ccc(S(N)(=O)=O)cc2)c2ccccc21
-7%,CC(=O)C1=C(O)C(=O)N(CCc2c[nH]c3ccccc23)C1c1ccc(C)cc1 (stereo not given)
-11%,CCC1=NN(C(=O)c2ccc(Br)cc2)C(O)(c2ccccc2)C1 (stereo not given)
-2%,Cc1nc2ccc(NC(=O)c3c(-c4ccccc4)noc3C)cc2s1
-15%,Cc1ccc2c(c1)OC(c1ccc3c(c1)OCCO3)CC2=O (stereo not given)
-27%,Cc1cc(C)cc(Nc2nc3ccc(C)cc3n3cnnc23)c1
15%,CCOC(=O)c1cccc(NC(=O)COC)c1
-4%,COc1cccc(C2c3[nH]c4ccccc4c3CCN2Cc2cnc(C)s2)c1OC (stereo not given)
-13%,CC1(C(=O)OCC(=O)NC(=O)c2ccccc2)CC1(Cl)Cl (stereo not given)
-29%,Cc1c(N/N=C(\C#N)C(=O)c2ccc(Cl)cc2)c(=O)n(-c2ccccc2)n1C
-13%,CCCS(=O)(=O)c1ccc(COC(=O)c2cccc(NC(=O)C(C)C)c2)cc1
-19%,Cc1cccc(CCNS(=O)(=O)c2cnc[nH]2)c1
-13%,CC(C)c1onc(C(=O)N2CCN(c3ccc(F)cc3)CC2)c1[N+](=O)[O-]
6%,CC(=O)Nc1ccc2c(c1)CCCN2C(=O)c1ccccc1
7%,COC(=O)CNC(=O)C12CC3(C)CC(C)(CC(C)(C3)C1)C2
-2%,COc1ccccc1-c1cc(C(=O)NCc2ccc(F)cc2)no1
11%,Cc1c(NC(=O)c2ccc(S(=O)(=O)N(C)C)cc2)cccc1-n1cnnn1
25µM*,CCC(C)[C@@H](NC(=O)OC(C)(C)C)c1nnc(S(=O)(=O)Cc2cccc(C)c2)o1 (stereo not given in full)
1%,CCN(CCCNC(=O)c1ccc(Sc2ccc(Cl)cc2)c(NC(C)=O)c1)c1cccc(C)c1
1%,C#CCOc1ccc2c3c(c(=O)oc2c1)CCCC3
0%,Cc1cc(C)cc(OCCNS(=O)(=O)c2cccs2)c1

Four successive compounds from above, for reference:
VDR inh,mol
-19%,Cc1cccc(CCNS(=O)(=O)c2cnc[nH]2)c1
-13%,CC(C)c1onc(C(=O)N2CCN(c3ccc(F)cc3)CC2)c1[N+](=O)[O-]
6%,CC(=O)Nc1ccc2c(c1)CCCN2C(=O)c1ccccc1
7%,COC(=O)CNC(=O)C12CC3(C)CC(C)(CC(C)(C3)C1)C2

The list continues:
VDR inh,mol
8%,CCOC(=O)c1ccc(Oc2nc(NC(C)(C)C)nc(N(C)C)n2)cc1
-2%,COc1cccc(NC(=O)C2CCN(c3ncccn3)CC2)c1
-11%,O=C(CNC(=O)C1COc2ccccc2O1)N/N=C/c1ccc([N+](=O)[O-])cc1 (stereo not given)
10%,COc1cc(CN2CCNC(=O)C2CC(=O)N(C)Cc2ncc[nH]2)cc(OC)c1 (stereo not given)
-28%,CC1CCc2[nH]c3ccc(C(=O)N(C)CC(=O)Nc4ccccc4Cl)cc3c2C1 (stereo not given)
-19%,O=C1NC(c2cccs2)Nc2ccccc21 (stereo not given)
-1%,O=[N+]([O-])c1cccc(/C=N/Nc2nc(C(Cl)(Cl)Cl)nc3ccccc23)c1
-9%,Cc1ccc(C(=O)CCC2CCCC2=O)cc1 (stereo not given)
1%,CCCn1c(=N)n(CC(O)COc2ccccc2OC)c2ccccc21 (stereo not given)
1%,Cc1ccccc1OCc1nc(-c2cccnc2)no1
3%,COc1ccc(/C=N/Nc2nc(C)cc(=O)[nH]2)cc1OC
-15%,O=C(CSc1nc2ccccc2[nH]1)Nc1nc(-c2cccc(Br)c2)cs1
1%,C/C(=N\N)c1c(-c2ccccc2)c2cc(C)ccc2[nH]c1=O
-3%,Cc1ccccc1CN1C(=O)C2(c3ccccc31)N(c1ccccc1)C(=O)CS2(=O)=O (stereo not given)
123%[activator],COc1ccc(-n2nc([N+](=O)[O-])c(=NCc3ccco3)n2O)cc1
-7%,O=C(NCc1ccco1)C1CCCCC1
1%,O=C(Nc1ccccc1C(F)(F)F)c1ccc(CN2CCC(Cc3ccccc3)CC2)cc1
89µM*,O=C(CCNc1ccccc1)c1cccc([N+](=O)[O-])c1
-3%,CC(=O)c1c(-c2ccccc2)c2cc([N+](=O)[O-])ccc2[nH]c1=O
1%,COc1ccc2c(c1)c1c(c(=O)n(-c3cccc(C)c3)c(=O)n1CC(=O)Nc1c(C)cc(C)cc1C)n2C

Only part of the results is shown; rates above refer to the full screens.
